Source: PubChem
TRPML1 inh – inhibitors of human TRPML1 channel; Q9GZU1; TRPML1-inducible cells, Ca2+ dye fluorescence, FDSS; hits give low values; inhibition of EC80 agonist-evoked calcium signal; activity change, negative = inhibition, % (test concentration not listed); 390,000 tested, 0.02% active; AID 624415; in the data active means activity change below about -50%; inconclusive means about -30% to -50%; inactive means above about -30%;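 also: stimulus is agonist 54-4 at its EC80 concentration; % is scaled to controls: 0 for no effect and ±100 for the full control effect; compound concentration not given in the record; the text of the record puts the active cut at -80%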
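TRPML1-DL cells, Tet-induced overnight (~16 h, 37 °C) at 1,500 cells/well, were loaded with Ca8 no-wash dye plus quencher for 45-90 min at room temperature. Compounds were pinned during FDSS kinetic reading; agonist 54-4 at EC80 (4 uM final) then added.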
TRPML1 ag – activates the human TRPML1 channel | Q9GZU1 | 410,000 tested, 0.12% active | TRPML1-expressing cells, Ca2+ dye fluorescence, FDSS; host cell line not named in the record; reference of the full effect not given here | activation, % (no concentration beside the values); in the data active = activation above about 50%; inconclusive = about 30% to 50%; inactive = below about 30%; also: 0% is about no effect; the text of the record puts the active cut at 80%
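Agonist activity was taken from a 110 s kinetic Ca2+ dye read on the FDSS after pinning compounds onto TRPML1-DL cells. The cells were seeded at 1,500/well with Tet inducer, incubated about 16 h, then dye-loaded at room temperature.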
CtBP-E1A inh – CtBP/E1A binding inhibition; AlphaScreen GST-E1A/His-CtBP binding, 1536-well; hits give low values; control for the full effect not named in the record; activity change, % (concentration not given with the values); 340,000 tested, 0.49% active; in the data active means activity change below about -65%; inconclusive means about -30% to -65%; inactive means above about -30%; also: % is scaled to controls: 0 for no effect and ±100 for the full control effect
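AlphaScreen with 125 nM GST-E1A and 125 nM His-CtBP (5X stocks) in Tris pH 8.0, 300 mM NaCl, BSA, Tween 20, TCEP. Compounds preincubated 2 h at 37 deg C, then glutathione donor/nickel acceptor beads added for 1 h at 37 deg C in dark.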
Six1-Eya2 blk – blocks human Six1 binding to Eya2 | AlphaScreen GST-Six1/His-Eya2 binding, biochemical; hits give low values; control for the full effect not named in the record | 360,000 tested, 0.56% active | AID 651725 | activity change, % (test concentration not listed); in the data active = activity change below about -65%; inconclusive = about -30% to -65%; inactive = above about -30%; also: % is scaled to controls: 0 for no effect and ±100 for the full control effect; compound concentration not given in the record
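AlphaScreen with GST-Six1 and His-Eya2 (5X mix: 250 nM and 500 nM), glutathione donor and nickel acceptor beads; buffer 50 mM Tris pH 8.0, 300 mM NaCl, 1 mM TCEP; 1 h at 37 C in the dark.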
TRPV1 PAM – human TRPV1 potentiation; Q8NER1; TRPV1-expressing cells, Fluo-8 calcium influx, capsaicin EC20 potentiation; host cell line not named in the record; control for the full effect not named in the record; potentiation, % at 8.33 µM; 320,000 tested, 0.02% active; active means potentiation above 80%; inconclusive means 30% to 80%; inactive means below 30%; also: 0% is about no effect
Target sequence (Q8NER1 whole entry, looked up): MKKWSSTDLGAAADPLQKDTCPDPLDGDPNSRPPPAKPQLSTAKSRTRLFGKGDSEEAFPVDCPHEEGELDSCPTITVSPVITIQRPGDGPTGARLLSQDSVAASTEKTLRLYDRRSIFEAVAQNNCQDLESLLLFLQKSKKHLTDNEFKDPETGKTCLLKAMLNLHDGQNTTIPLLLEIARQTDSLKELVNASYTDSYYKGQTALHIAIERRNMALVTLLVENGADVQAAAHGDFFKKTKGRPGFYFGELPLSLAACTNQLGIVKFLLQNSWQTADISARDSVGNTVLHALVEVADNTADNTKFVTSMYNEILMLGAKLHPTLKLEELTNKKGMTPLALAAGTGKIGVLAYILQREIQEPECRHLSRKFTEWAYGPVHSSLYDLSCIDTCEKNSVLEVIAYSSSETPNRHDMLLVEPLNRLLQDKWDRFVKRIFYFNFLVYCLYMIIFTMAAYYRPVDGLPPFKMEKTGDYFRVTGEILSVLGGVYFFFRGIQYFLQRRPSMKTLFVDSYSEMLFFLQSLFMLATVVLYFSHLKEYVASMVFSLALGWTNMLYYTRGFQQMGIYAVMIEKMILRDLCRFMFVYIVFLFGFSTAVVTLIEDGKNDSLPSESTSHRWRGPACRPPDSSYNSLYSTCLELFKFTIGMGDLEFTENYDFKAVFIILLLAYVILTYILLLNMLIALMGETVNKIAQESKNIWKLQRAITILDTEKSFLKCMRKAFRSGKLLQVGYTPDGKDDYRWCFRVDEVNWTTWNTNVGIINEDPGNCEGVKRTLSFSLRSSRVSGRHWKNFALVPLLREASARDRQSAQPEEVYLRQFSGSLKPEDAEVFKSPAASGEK
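Cells expressing TRPV1 were dye-loaded with Fluo-8 and read kinetically: 10 s baseline, 3 min after compound (agonist portion), then 2 min after EC20 capsaicin (allosteric enhancer portion). Calcium-bound dye fluorescence at 480/520 nm.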
D2 potentiator – human D2 receptor positive allosteric modulation; DiscoveRx D2 beta-arrestin cells, luminescence, 90 min; 100% = 57 uM dopamine signal; potentiation, % (no concentration beside the values); P14416; 360,000 tested, 0.23% active; active = potentiation of 50% or more; inconclusive = 30% to 50%; inactive = 30% or less;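 also: compound concentration not given in the record; tested on top of an EC20 dose of dopamine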
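PathHunter beta-arrestin assay in DiscoveRx D2 cells. Compounds were added with an EC20 of dopamine (50 nM final) for 90 min at 37 deg C. Luminescence was read 1 h after detection reagent, with 57 uM dopamine as the EC100 control.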
An asterisk follows results filed as active; ? = inconclusive; nt = no result given.

SMILES	TRPML1 inh	TRPML1 ag	CtBP-E1A inh	Six1-Eya2 blk	TRPV1 PAM	D2 potentiator
CC1CCCN(c2nc3c(c(=O)[nH]c(=O)n3C)n2Cc2ccccc2Cl)C1 (stereo not drawn)	14	0.6	2	3	?	3
O=C(CCc1ccccc1)Nc1nc2nc(-c3ccccc3)cc(=O)n2[nH]1	0	-0.1	-26	?	0	1
Cc1cc(C)c2c(N)c(C(=O)N/N=C/c3ccccc3)sc2n1	-3	-1.2	nt	-1	-12	-20
COc1ccc2c(c1)Cc1sc(NC(=O)c3ccco3)nc1-2	-3	2.3	-10	-18	-19	2
CN/C=C1\C(=O)C(C)(C)Oc2ccc3ccc(=O)oc3c21	-19	0.3	-15	-17	9	0
Cc1cc(OCc2cccc(S(=O)(=O)N3CCOCC3)c2)ccc1Cl	16	1.6	nt	5	-6	-2
O=C(C1CCCCN1S(=O)(=O)c1ccccc1[N+](=O)[O-])N1CCCC1 (stereo not drawn)	-15	-0.4	-19	6	11	-7
O=C(c1cn(-c2ccccc2)nc1-c1cccnc1)N1CCN(S(=O)(=O)c2cccc(F)c2)CC1	-3	-0.5	nt	13	4	-5
CCOC(=O)c1c(C)nc2ccccc2c1-c1ccccc1	12	0.3	13	19	3	14
Cn1c(=O)c2c(ncn2CC(=O)N2CCN(S(=O)(=O)c3ccc(F)cc3)CC2)n(C)c1=O	13	-0.6	8	1	-3	1
Nc1ncnc2c1ncn2[C@H]1CC[C@@H](CO)O1	-1	-0.1	7	-2	1	-1
C/C(CC(=O)Nc1cccc(Cl)c1C)=N\NC(=O)C(=O)NCC(C)C	20	2.8	4	0	23	-13
CCOC(=O)N1CCN(CC(O)COc2ccccc2C(C)C)CC1 (stereo not drawn)	-8	0.1	-1	11	5	-12
COC(=O)c1cc(S(=O)(=O)N(C)C2CCCCC2)oc1C	10	0.2	-4	-3	4	1
CC1CCN(CCNC(=O)C2CCN(S(=O)(=O)c3cccc4nsnc34)CC2)CC1	-12	0.4	-23	6	-1	-18
Cc1cc(F)ccc1NC(=O)C(C)n1c2ccccc2c2nc(=O)cc(C)n21 (stereo not drawn)	-1	1.8	5	10	2	-6
CN(C(=O)CSc1nc2c(c(=O)[nH]1)CCC2)c1ccccc1	31	1.5	nt	1	5	-13
CCC(c1nnnn1C(C)(C)C)N1CCN(C(=O)c2ccco2)CC1 (stereo not drawn)	-7	0.0	-2	-6	-5	-6
O=C1NC(=O)C(Cc2ccccc2)(c2ccccc2)N1 (stereo not drawn)	-2	0.0	0	4	nt	-3
O=C(CSc1nnc(-c2ccco2)o1)NC(=O)Cc1ccccc1	-10	-0.1	-2	-3	-17	-5
COc1ccc2c(c1OC)C(=O)OC2CC(=O)c1ccc(N(C)C)cc1 (stereo not drawn)	0	-1.7	-2	2	4	-1
CCOC(=O)Nc1nc2ccc(Cn3cccc3)cc2[nH]1	6	-0.2	3	-5	nt	-6
O=C(Nc1ccc(Cl)c(Cl)c1)Nc1ccccc1NS(=O)(=O)c1cccs1	4	0.8	3	2	11	-9
COc1ccc(N2CCN(C(=O)c3ccc4ccccc4n3)CC2)cc1	-13	-0.2	-3	-7	21	-4
Nc1ccc2nc(Cc3ccccc3)[nH]c2c1	32	-0.8	1	-16	13	-14
Nn1c(-c2ccccc2)nc2ccccc2c1=O	3	-0.7	1	0	-4	-2
Cc1nc(SCC(=O)Nc2ccc3c(c2)OCCO3)c2oc3ccccc3c2n1	17	3.2	-12	-18	-6	-7
Cc1ccc(NS(=O)(=O)c2c(C(=O)N3CCCCCC3)c(C)n(C)c2C)cc1C	20	0.7	-2	-6	-3	-3
CC(=O)Nc1ccc(S(=O)(=O)NCCSCc2c(Cl)cccc2Cl)cc1	-2	-0.7	1	-5	4	2
CCOc1ccc(C2/C(=C(\O)c3ccc4c(c3)OCCO4)C(=O)C(=O)N2CCN2CCOCC2)cc1OC (stereo not drawn)	1	0.3	3	0	-15	-8
COCCN(C(=O)Cc1cccs1)C(C(=O)NCc1ccc(OC)cc1)c1ccccc1 (stereo not drawn)	-11	0.2	10	-1	-11	-19
CCN(CC)c1ccc(C(=O)OCc2cc(=O)oc3cc(O)ccc23)cc1	17	2.3	-2	-10	-8	1
COc1ccc(S(=O)(=O)/N=C2/NC(=O)/C(=C/c3ccco3)S2)cc1	-29	0.2	17	-13	-1	-4
N#CC(C#N)=C(N)/C(C#N)=C/c1cc(O)c(O)c(O)c1	-11	?	-25	4	2	-14
COc1ccc(-c2nc3ccccc3c(=O)n2NC(=S)N(C)C)cc1	11	0.1	1	7	5	-11
CSc1nc2sc3c(c2c(=O)n1C)CCC3	0	0.7	1	-1	0	-1
CCNc1nc(NC(C)(C)C)nc(N2CCCC2)n1	4	-1.0	6	0	-6	-11
O=C(NCCCN1CCCCC1)C1CCCN(c2ncnc3c2nc2n3CCCCC2)C1 (stereo not drawn)	-2	0.0	-21	-1	12	-13
COc1ccccc1-n1cnc2cc(NCc3ccco3)ccc21	30	0.3	-7	-12	-2	-1
O=C(CCC(=O)Nc1ccc(Br)cc1)N/N=C/c1ccc(O)cc1	7	2.1	nt	-7	10	-23
CC1(C(=O)Nc2cnc3ccccc3c2)CCN1Cc1ccccc1OC(F)F (stereo not drawn)	nt	0.2	-9	-12	nt	-8
CS(=O)(=O)c1cccc(-c2nnc(NC(=O)c3ccc(S(=O)(=O)N4CCCC4)cc3)o2)c1	7	0.7	0	-20	-4	28
Cn1c(=O)n(C)c2cc(S(=O)(=O)NCCO)ccc21	0	1.3	6	1	8	-4
C=CCNC(=S)N/N=C/c1ccc(OCc2ccccc2Cl)cc1	35	0.4	-1	-1	7	-8
O=C(CCCc1ccccc1)NCc1ccccn1	1	0.6	16	-2	21	0
COc1ccc(S(=O)(=O)N2CCN(c3cnccn3)CC2)cc1OC	5	-0.7	-7	2	nt	-5
CCOC(=O)c1ccccc1NC(=O)CSc1nnc(Cc2cccn2C)n1-c1ccc(F)cc1	-12	0.4	-9	-8	-5	-8
Cc1cccn2c(=O)c3cc(C(=O)NCC4CCCO4)c(=N)n(C4CCCCC4)c3nc12 (stereo not drawn)	4	-0.3	-10	13	-33	-3
COC(=O)c1ccc(OC(=O)c2nn(C)cc2Cl)c(OC)c1	24	1.5	-10	4	0	2
CC(=O)N/N=C\c1ccccc1OC/C=C/c1ccccc1	-19	1.6	-4	5	14	-2
C/C(=N\NC(N)=S)C1(C)CC2(CC(C)(C)OC2=O)C(=O)O1 (stereo not drawn)	-10	0.0	-1	-11	14	-1
Cc1ccc(S(=O)(=O)Oc2ccc3ccc(O)cc3c2)cc1	-8	0.3	8	1	6	7
CCOC(=O)C(NC(=O)Nc1ccc(F)cc1F)(Oc1ccccc1)C(F)(F)F (stereo not drawn)	3	-0.2	6	8	10	7
O=C(NC1CCN(Cc2ccccc2)CC1)c1ccc(Cn2c(=S)[nH]c3ccc(N4CCOCC4)cc3c2=O)cc1	21	-1.4	1	-11	9	-53
CCN(CC(=O)Nc1cc(Cl)ccc1C)C(=O)c1ccc2c(c1)NC(=O)C(C)S2 (stereo not drawn)	11	-1.1	-1	-5	7	-32
Cc1cc(NC(=O)C2C3C(=O)N(CCC(C)C)C(C(=O)NCc4ccccc4)C34C=CC2(C)O4)no1 (stereo not drawn)	26	-0.5	7	6	-11	-10
COc1cccc(CN2CCc3ccc(NC(=O)CCc4ccc(C)cc4)cc3C2)c1O	13	-0.8	-8	-5	-1	-41
Cc1nc(NC(=O)COC(=O)c2cc3c(s2)CCC(C)C3)c(Cl)cc1Cl (stereo not drawn)	12	-0.5	3	0	10	1
CN(C(=O)c1ccc2c(=O)n3c(nc2c1)CCCCC3)c1ccccc1Cl	8	0.5	1	-7	11	1
CCc1ccc2oc(-c3cc(N=Cc4cccc(OC)c4O)ccc3O)nc2c1	-6	2.8	?	?	10	-17

Fetched one by one from above (three):
SMILES	TRPML1 inh	TRPML1 ag	CtBP-E1A inh	Six1-Eya2 blk	TRPV1 PAM	D2 potentiator
CCOC(=O)C(NC(=O)Nc1ccc(F)cc1F)(Oc1ccccc1)C(F)(F)F (stereo not drawn)	3	-0.2	6	8	10	7
C/C(=N\NC(N)=S)C1(C)CC2(CC(C)(C)OC2=O)C(=O)O1 (stereo not drawn)	-10	0.0	-1	-11	14	-1
CCc1ccc2oc(-c3cc(N=Cc4cccc(OC)c4O)ccc3O)nc2c1	-6	2.8	?	?	10	-17

New compounds follow
SMILES	TRPML1 inh	TRPML1 ag	CtBP-E1A inh	Six1-Eya2 blk	TRPV1 PAM	D2 potentiator
CCSc1nc(C)cc(Oc2ccc(=O)n(C)n2)n1	2	-0.3	6	-1	0	-4
Cc1cccc(C)c1NC(=O)C1c2ccccc2OCC(=O)N1Cc1ccccc1 (stereo not drawn)	nt	-0.4	0	16	nt	nt
O=C(NCCc1ccccc1)c1ccc2c(c1)OCO2	-16	1.0	0	9	-7	-3
COc1ccc(CNC(=O)C2CCN(S(=O)(=O)c3ccccc3)CC2)cc1	-11	0.1	0	9	-2	13
CCN(CC)CCn1c(NCc2cccc(OC)c2OC)nc2ccccc21	2	-0.1	2	-28	-11	-52
CCC(C)Nc1nnc(SCC(=O)c2c(N)n(C3CC3)c(=O)[nH]c2=O)s1 (stereo not drawn)	1	0.6	5	1	nt	-3
CC1CCCN(C(=O)Cn2nnc(-c3ccc(S(C)(=O)=O)cc3)n2)C1 (stereo not drawn)	-10	0.2	1	-1	-1	0
COc1ccc(C(CNC(=O)c2cc3c(s2)CCC(C)C3)N2CCOCC2)cc1 (stereo not drawn)	2	0.8	0	-8	0	-5
CC(OC(=O)C1CCCO1)C(=O)NC1CCCC1 (stereo not drawn)	3	-0.8	8	4	5	-5
CN1/C(=C/C=C(C#N)C#N)C(C)(C)c2ccccc21	-3	0.0	-1	2	0	-5
COc1ccc(CC(=O)O/N=C(\N)c2ccccc2)cc1OC	14	1.8	8	10	8	-1
COc1ccc(CNS(=O)(=O)CCNC(=O)c2ccc3c(c2)OCO3)cc1	-13	-0.1	0	7	-9	-1

Some of these compounds in order of their number in CtBP-E1A inh, descending:
SMILES,CtBP-E1A inh
CC(OC(=O)C1CCCO1)C(=O)NC1CCCC1 (stereo not drawn),8
CCSc1nc(C)cc(Oc2ccc(=O)n(C)n2)n1,6
CCC(C)Nc1nnc(SCC(=O)c2c(N)n(C3CC3)c(=O)[nH]c2=O)s1 (stereo not drawn),5
CCN(CC)CCn1c(NCc2cccc(OC)c2OC)nc2ccccc21,2
CC1CCCN(C(=O)Cn2nnc(-c3ccc(S(C)(=O)=O)cc3)n2)C1 (stereo not drawn),1
Cc1cccc(C)c1NC(=O)C1c2ccccc2OCC(=O)N1Cc1ccccc1 (stereo not drawn),0
CN1/C(=C/C=C(C#N)C#N)C(C)(C)c2ccccc21,-1

More compounds
SMILES	TRPML1 inh	TRPML1 ag	CtBP-E1A inh	Six1-Eya2 blk	TRPV1 PAM	D2 potentiator
C[C@H]1CN([C@@H](C)CO)C(=O)c2cc(NS(=O)(=O)c3ccc(F)cc3)ccc2O[C@H]1CN(C)S(=O)(=O)c1cn(C)cn1	-3	-0.6	0	19	nt	3
O=C(NC1CCCCC1)c1ccc2snnc2c1	10	-0.6	2	5	-6	-6
CC(C)c1ccc(/C=C/C(=O)NCCC2=CCCCC2)cc1	37	3.8	22	8	-11	-21
CN(CC(=O)N1CCN(c2ccccc2F)CC1)S(=O)(=O)c1cnc[nH]1	-10	0.3	11	6	7	0
